SARS PLP yeast – qHTS of Yeast-based Assay for SARS-CoV PLP; S. cerevisiae expressing SARS-CoV PLpro, growth rescue; control for the full effect not named in the record; 330,000 tested, 0.19% active; Potency, µM (highest dose often 32.9 µM), without a hit: at the highest dose activity, positive = growth rescue; AID 485353, 2010; active means well fitted rising curve with a large enough effect; inconclusive means small, poorly fitted or top-dose-only effect; inactive means no such curve, though single readings can be large or run the other way; note: 0% is about no effect; nearly all actives have a fitted effect of over 55% in size; growth read by luminescence after 48 h
StopGo reporter – High Throughput Screening for Foot and Mouth Disease Virus Antivirals; human cells with a luciferase reporter of 2A StopGo recoding; control for the full effect not named in the record; Potency, µM (highest dose often 57.9 µM), without a hit: at the highest dose signal change, negative = less light; 410,000 tested, 1.2% active; AID 1159524, 2015; active = well fitted falling curve with a large enough effect; inconclusive = small, poorly fitted or top-dose-only effect; inactive = no such curve, though single readings can be large or run the other way; tested in HEK293T cells; note: % is set by controls: 0 for no effect and ±100 for the full control effect; nearly all actives have a fitted effect of over 45% in size; luciferase light after 4 h
RE007 growth inh – qHTS Assay for Inhibitors of the HIV-1 protein Vpr; S. pombe RE007 Vpr strain, BacTiter-Glo ATP luminescence, 24 h; control for the full effect not named in the record; Potency, µM (top dose mostly 92.2 µM), for inactives: at the top dose activity change, negative = less growth; 360,000 tested, 0.21% active; active = well fitted falling curve with a large enough effect; inconclusive = small, poorly fitted or top-dose-only effect; inactive = no such curve, though single readings can be large or run the other way;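 note: % is set by controls: 0 for no effect and ±100 for the full control effect; nearly all actives have a fitted effect of over 50% in size; the assay follows cell death caused by Vpr and the record does not say whether a fall means rescue or toxicity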
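Fission yeast RE007 carrying one integrated HIV-1 vpr copy, seeded at OD 0.01 in PMG+AL medium with 23 nL pinned compound. Grown 24 h at 30 degrees; viability read by BacTiter-Glo luminescence after 5 min.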
Cruzain inh noDet – qHTS Assay for Promiscuous and Specific Inhibitors of Cruzain (without detergent); Cruzipain (Trypanosoma cruzi), P25779; purified cruzain, Z-FR-AMC fluorescence, no detergent; Potency, µM, for inactives: max response, negative = inhibition, most hits filed as inhibitors; 200,000 tested, 2.3% active;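 note: plate controls were enzyme without inhibitor for no effect and buffer without enzyme for full effect; nearly all actives have a fitted effect of over 40% in size; top concentration of the series not given in the record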
Target sequence (P25779 123-467 limits assumed): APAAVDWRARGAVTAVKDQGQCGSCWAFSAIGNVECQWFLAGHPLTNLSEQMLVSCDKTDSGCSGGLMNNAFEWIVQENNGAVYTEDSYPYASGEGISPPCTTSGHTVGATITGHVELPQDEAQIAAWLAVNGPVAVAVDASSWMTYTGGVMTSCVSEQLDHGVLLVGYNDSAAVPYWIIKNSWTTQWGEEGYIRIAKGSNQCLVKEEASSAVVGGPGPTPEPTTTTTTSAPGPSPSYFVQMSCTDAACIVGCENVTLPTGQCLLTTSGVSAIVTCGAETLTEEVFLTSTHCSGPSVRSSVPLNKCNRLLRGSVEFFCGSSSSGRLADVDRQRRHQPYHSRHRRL
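Purified cruzain at 1.5 nM, pre-incubated 15 min with compound at room temperature in 100 mM sodium acetate pH 5.5, 5 mM DTT, 0.00005% Triton X-100. Reaction started with 2 uM Z-FR-AMC; AMC fluorescence increase over 60 s gives rate.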
Cruzain Triton – qHTS Assay for Promiscuous and Specific Inhibitors of Cruzain (with detergent); Cruzipain (Trypanosoma cruzi), P25779; purified cruzain, Z-FR-AMC fluorescence, 0.01% Triton; Potency, µM, without a hit: max response, negative = inhibition, hits mostly inhibitors; 200,000 tested, 0.43% active; AID 1478, 2009;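 note: plate controls were neutral wells for no effect and buffer without enzyme for full effect; nearly all actives have a fitted effect of over 40% in size; top concentration of the series not given in the record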
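Z-FR-AMC hydrolysis (2 uM substrate) by cruzain (1.5 nM) monitored kinetically at ex 360/em 450 nm after 15 min room-temperature compound exposure; 0.01% Triton X-100, pH 5.5, 5 mM DTT.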
LASV entry inh – qHTS for Inhibitors of binding or entry into cells for Lassa Virus; Lassa virus pseudotype entry inhibition, cell reporter; control for the full effect not named in the record; 300,000 tested, 1.2% active; AID 540256, 2011; Potency, µM (doses to about 37.9 µM), for inactives: at the top dose activity change, negative = inhibition, most hits filed as inhibitors; active means well fitted inhibition curve with a large enough effect; inconclusive means small, poorly fitted or top-dose-only effect, or effect the other way; inactive means flat fitted curve, though single readings scatter; tested in HEK293 cells; note: % is set by controls: 0 for no effect and ±100 for the full control effect; nearly all actives have a fitted effect of over 50% in size; luciferase read-out
NS1 inh – qHTS Assay for Inhibitors of Influenza NS1 Protein Function | S. cerevisiae slowed by influenza A NS1, growth recovery by OD600 | Potency, µM (series often up to 46.1 µM), for the others: at the top dose activity, positive = more growth | 270,000 tested, 0.4% active; active means well fitted rising curve with a large enough effect; inconclusive means small, poorly fitted or top-dose-only effect; inactive means no such curve, though single readings can be large or run the other way; note: nearly all actives have a fitted effect of over 50% in size
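Compounds were scored for reversing the slow growth caused by influenza A NS1 in S. cerevisiae, measured by optical density at 600 nm. Assay medium contained 2% galactose at pH 6.0; NS1-free yeast of the same strain were the positive control.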
MARV entry inh – qHTS for inhibitors of binding or entry into cells for Marburg Virus; Marburg virus pseudotyped entry inhibition, cell reporter; control for the full effect not named in the record; about a third of the inactives were read at about 46 µM; Potency, µM (series often up to 37.8 µM), for inactives: top-dose activity change, negative = inhibition, usual class: inhibitors; 300,000 tested, 1.8% active; AID 540276, 2011; active = well fitted inhibition curve with a large enough effect; inconclusive = small, poorly fitted or top-dose-only effect, or effect the other way; inactive = flat fitted curve, though single readings scatter; tested in HEK293 cells; about a fifth of its hits are not listed in these tables; note: % is set by controls: 0 for no effect and ±100 for the full control effect; luciferase read-out
Active calls of the source: *; & = joins results of further samples; [ ] = dose if it differs, or a comment. Unless noted, calls come from the whole dose curve; as a rule, active = well fitted curve in the direction sought with a large enough effect; inconclusive = small, poorly fitted or top-dose-only effect, or another doubt; inactive = no such curve, though single readings can be large; an effect the other way counts as inactive or inconclusive. Potency is the fitted concentration of half-maximal effect. Outcome played no part in choosing rows. Share with any hit: about 4.8%.

Results for CC(C)(C)C1CCc2[nH]nc(C(=O)O)c2C1 (stereo not drawn) ?
SARS PLP yeast: -2%; StopGo reporter: -15%; RE007 growth inh: -2%; Cruzain inh noDet: 10%; Cruzain Triton: -1.8%; LASV entry inh: 3%; NS1 inh: -1%; MARV entry inh: 4%[46.1 µM]

What do the screens show for `COc1cc(-c2nc(-c3ccc(NC(=O)c4ccc(Br)o4)cc3)no2)cc(OC)c1OC`?
SARS PLP yeast: 0%; StopGo reporter: -9%; RE007 growth inh: 13%; Cruzain inh noDet: inconclusive; Cruzain Triton: 3.4%; LASV entry inh: inconclusive; NS1 inh: -4%; MARV entry inh: inconclusive

How did CCC(C)NC(=S)N(CCc1ccccc1)Cc1cc2cc(OC)c(OC)cc2[nH]c1=O (stereo not drawn) do in these assays?
SARS PLP yeast: -3%; StopGo reporter: inconclusive; RE007 growth inh: -4%; Cruzain inh noDet: inconclusive; Cruzain Triton: -14%; LASV entry inh: inconclusive; NS1 inh: 25%; MARV entry inh: inconclusive

What do the screens show for `O=C(O)c1ccc(S(=O)(=O)N(Cc2ccc(F)cc2)C2CCCCC2)cc1`?
SARS PLP yeast: -1%; StopGo reporter: -18%; RE007 growth inh: 0%; NS1 inh: -8%

Results for O=C1c2ccccc2NC(c2ccc(F)cc2)N1Cc1ccccc1 (stereo not drawn) ?
SARS PLP yeast: -3%; StopGo reporter: -15%; RE007 growth inh: 8%; NS1 inh: -3%

How did CCC(=NCCN1CCOCC1)c1c(O)n(-c2ccccc2C)c(=O)[nH]c1=O do in these assays?
SARS PLP yeast: -1%; StopGo reporter: 13%; RE007 growth inh: 2%; Cruzain inh noDet: 1%; Cruzain Triton: 1.0%; LASV entry inh: -5%; NS1 inh: -7%; MARV entry inh: 5%[46.1 µM]

Results for Cc1ccc2c(CC(=O)N(Cc3ccc(Cl)cc3)Cc3ccco3)coc2c1 ?
StopGo reporter: -19%; Cruzain inh noDet: -3%; Cruzain Triton: 0.3%; LASV entry inh: 4%[46.1 µM]; MARV entry inh: -12%[46.1 µM]

What do the screens show for `Cc1c(Br)c([N+](=O)[O-])nn1C(C)C(=O)NCc1cccnc1` (stereo not drawn)?
SARS PLP yeast: 5%; StopGo reporter: -8%; RE007 growth inh: -2%; Cruzain inh noDet: 0%; Cruzain Triton: 1.1%; LASV entry inh: -24%; NS1 inh: 2%; MARV entry inh: 20%

What do the screens show for `Cc1c(C(=O)OC2CCCC2C)[nH]c2c1C(=O)CCC2` (stereo not drawn)?
SARS PLP yeast: -26%; StopGo reporter: -15%; RE007 growth inh: 3%; Cruzain inh noDet: -4%; Cruzain Triton: -0.7%; LASV entry inh: -12%; NS1 inh: -121%; MARV entry inh: -23%

Results for O=C(NNC(=O)c1cccc(C(F)(F)F)c1)c1ccc(-n2cnnn2)cc1 ?
SARS PLP yeast: 0%; StopGo reporter: 5%; RE007 growth inh: -14%; LASV entry inh: -9%[46.1 µM]; MARV entry inh: 8%[46.1 µM]

What do the screens show for `COCCNC(=O)CSc1nc2ccccc2c(=O)n1CCCC(=O)NCc1ccccc1`?
SARS PLP yeast: -9%; StopGo reporter: -5%; RE007 growth inh: 5%; Cruzain inh noDet: 11%; Cruzain Triton: 5.8%; LASV entry inh: 1%; NS1 inh: 0%; MARV entry inh: 0%

What do the screens show for `CSc1nnc(C2CCCN2)n1C` (stereo not drawn)?
SARS PLP yeast: 0%; StopGo reporter: 5%; RE007 growth inh: 0%; Cruzain inh noDet: -3%; Cruzain Triton: 1.7%; LASV entry inh: 19%; NS1 inh: -12%; MARV entry inh: 5%

What do the screens show for `O=C(N/N=C/c1ccccn1)c1cc(-c2ccc3ccccc3c2)n[nH]1`?
SARS PLP yeast: 1%; StopGo reporter: inconclusive; RE007 growth inh: 31%; Cruzain inh noDet: 5%; Cruzain Triton: -16%; LASV entry inh: -18%; NS1 inh: 14%; MARV entry inh: inconclusive

Results for O=C(CN1C(=O)COc2ccc(S(=O)(=O)N3CCOCC3)cc21)NCc1ccccn1 ?
SARS PLP yeast: 0%; StopGo reporter: 20%; RE007 growth inh: 10%; NS1 inh: 0%

What do the screens show for `Cc1occc1-c1nnc(SCC(=O)NC(=O)NC(C)C)n1N`?
SARS PLP yeast: 10%; StopGo reporter: 7%; RE007 growth inh: 1%; Cruzain inh noDet: 1%; Cruzain Triton: 12%; LASV entry inh: 0%; NS1 inh: inconclusive; MARV entry inh: -1%

Results for O=C1C(Cl)=C(NC2CCCCC2)C(=O)N1c1ccc(Cl)cc1 ?
SARS PLP yeast: -4%; StopGo reporter: 22%; RE007 growth inh: 1%; Cruzain inh noDet: -13%; Cruzain Triton: -6.3%; LASV entry inh: 2%; NS1 inh: 0%; MARV entry inh: 27%

How did COc1cc(OC)cc(C(=O)NC2CCSC2=O)c1 (stereo not drawn) do in these assays?
SARS PLP yeast: -2%; StopGo reporter: 10%; RE007 growth inh: 0%; Cruzain inh noDet: -7%; Cruzain Triton: -3.1%; LASV entry inh: -13%; NS1 inh: 2%; MARV entry inh: 16%

What do the screens show for `COc1ccc(NC(=O)CCC(=O)OCc2ccc([N+](=O)[O-])cc2)cc1`?
SARS PLP yeast: 1%; StopGo reporter: inconclusive; RE007 growth inh: 7%; LASV entry inh: 8%; MARV entry inh: 11%

Results for O=C(CC1SC2=NCCN2C1=O)Nc1ccc(Br)cc1 (stereo not drawn) ?
SARS PLP yeast: 4%; StopGo reporter: 0%; RE007 growth inh: -1%; Cruzain inh noDet: -17%; Cruzain Triton: -0.8%; LASV entry inh: -1%; NS1 inh: 11%; MARV entry inh: 22%

Results for CCN1CCN(Cc2nc3c(c(=O)n(C)c(=O)n3C)n2CC(=O)c2ccccc2)CC1 ?
SARS PLP yeast: 9%; StopGo reporter: -10%; RE007 growth inh: -5%; Cruzain inh noDet: 7%; Cruzain Triton: 8.4%; NS1 inh: -1%; MARV entry inh: -4%

What do the screens show for `NC(=O)C1Cc2ccccc2CN1C(=O)c1cccc(Oc2ccccc2)c1` (stereo not drawn)?
SARS PLP yeast: 0%; StopGo reporter: 0%; RE007 growth inh: -6%; LASV entry inh: inconclusive; NS1 inh: 0%; MARV entry inh: -16%

What do the screens show for `CC1CCc2noc(NC(=O)c3ccccc3[N+](=O)[O-])c2C1` (stereo not drawn)?
StopGo reporter: -9%; Cruzain inh noDet: -17%; Cruzain Triton: -4.3%; LASV entry inh: 6%[46.1 µM]; MARV entry inh: 14%[46.1 µM]

Results for CC(C)(O[C@@H]1O[C@H](CO)[C@@H](O)[C@H](O)[C@H]1O)[C@H]1Cc2cc3ccc(=O)oc3cc2O1 ?
SARS PLP yeast: -9%; StopGo reporter: -14%; RE007 growth inh: 6%; Cruzain inh noDet: inconclusive; Cruzain Triton: 2.1%; LASV entry inh: -24%; NS1 inh: 7%; MARV entry inh: 28%

What do the screens show for `COc1cc(S(=O)(=O)N(Cc2ccccc2)Cc2ccccn2)ccc1-n1cnnn1`?
SARS PLP yeast: -6%; RE007 growth inh: 2%; Cruzain inh noDet: 21%; Cruzain Triton: -4.0%; LASV entry inh: 8%; NS1 inh: -2%; MARV entry inh: inconclusive

Results for Cc1ccc(S(=O)(=O)n2cnc3cc([N+](=O)[O-])ccc32)c(C)c1C ?
SARS PLP yeast: 3%; StopGo reporter: 20%; RE007 growth inh: 4%; Cruzain inh noDet: -8%; Cruzain Triton: -0.6%; LASV entry inh: inconclusive; NS1 inh: 7%; MARV entry inh: 3%

Results for N#Cc1ccc(S(=O)(=O)N2CCC(Oc3cccc(C(F)(F)F)c3)CC2)cc1 ?
StopGo reporter: -29%; Cruzain inh noDet: -28%; Cruzain Triton: -1.3%; LASV entry inh: 0%[46.1 µM]; MARV entry inh: -1%[46.1 µM]

Results for O=C(/C=C/c1ccc2c(c1)OCO2)c1ccc(O)cc1O ?
StopGo reporter: 20%; RE007 growth inh: -17%; LASV entry inh: inconclusive; MARV entry inh: inconclusive

What do the screens show for `O=C(CCS(=O)(=O)c1cccc2nonc12)Nc1cccc2c1CCCC2`?
SARS PLP yeast: -4%; StopGo reporter: -5%; RE007 growth inh: -5%; Cruzain inh noDet: -13%; Cruzain Triton: 1.7%; LASV entry inh: 1%; NS1 inh: 3%; MARV entry inh: inconclusive

What do the screens show for `COc1ccccc1C(=O)C1CCCN(C(=O)c2snnc2C)C1` (stereo not drawn)?
SARS PLP yeast: 0%; StopGo reporter: -3%; RE007 growth inh: 5%; LASV entry inh: 13%; NS1 inh: 11%; MARV entry inh: 6%

How did COc1ccc(NC(=O)c2sccc2SCC#N)cc1 do in these assays?
SARS PLP yeast: -5%; StopGo reporter: 57%[activator]; RE007 growth inh: -2%; Cruzain inh noDet: 3%; Cruzain Triton: -5.1%; LASV entry inh: 17%[14.3 µM]; NS1 inh: -9%; MARV entry inh: 17%

How did CC#CC[N+](C)(C)CCCCCCCC do in these assays?
SARS PLP yeast: -3%; StopGo reporter: -20%; RE007 growth inh: 5%; LASV entry inh: -7%[46.1 µM]; NS1 inh: -4%; MARV entry inh: inconclusive

Results for Cc1cccc(Nc2cc(C)nc3nc(-c4ccccc4)nn23)c1 ?
StopGo reporter: 4%; Cruzain inh noDet: 3%; Cruzain Triton: 0.1%; LASV entry inh: 21%[46.1 µM]; MARV entry inh: inconclusive

What do the screens show for `CCN1C(=O)N[C@H](c2ccc(Br)cc2)C(C(C)=O)=C1C`?
SARS PLP yeast: -18%; StopGo reporter: -27%; RE007 growth inh: -8%; Cruzain inh noDet: -8%&-7%; Cruzain Triton: 0.9%&-1.2%; LASV entry inh: 3%; NS1 inh: 19%; MARV entry inh: inconclusive

Results for CC(=O)NCc1ccc(C(=O)CCl)s1 ?
SARS PLP yeast: 15%; StopGo reporter: 28µM*; RE007 growth inh: 3%; LASV entry inh: inconclusive; NS1 inh: 0%; MARV entry inh: 4.5µM*

Screens: PubChem BioAssay, National Center for Advancing Translational Sciences (NCATS)
